# CtBP-E1A inh – qHTS Assay for Inhibitors of the CtBP/E1A Interaction. CtBP / adenovirus E1A interaction (AlphaScreen). AlphaScreen GST-E1A/His-CtBP binding, 1536-well; stronger effect = lower value; control for the full effect not named in the record. activity change, % (test concentration not listed). 340,000 compounds, 0.49% hits. AID 651724, 2012; in the data active means activity change below about -65%; inconclusive means about -30% to -65%; inactive means above about -30%; further: on the % scale 0 is the no-effect control and ±100 the full control effect
#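 In 5 uL wells, 23 nL compound meets equimolar GST-E1A and His-CtBP (5X stock 125 nM each) for 2 h, 37 °C. Beads (5X, 50 ug/mL) then 1 h, 37 °C, dark.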
# Six1-Eya2 inh – qHTS Assay for Inhibitors of the Six1/Eya2 Interaction | 360,000 compounds, 0.56% hits | activity change, % (concentration not given with the values) | AID 651725, 2012 | AlphaScreen GST-Six1/His-Eya2 binding, biochemical; stronger effect = lower value; control for the full effect not named in the record; in the data active = activity change below about -65%; inconclusive = about -30% to -65%; inactive = above about -30%; further: on the % scale 0 is the no-effect control and ±100 the full control effect
#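 AlphaScreen luminescence read after one hour at 37 °C in darkness. Pin-transferred compounds met GST-Six1 and His-Eya2 protein (5X stock 250 nM/500 nM) plus glutathione donor and Ni-chelate acceptor beads (5X, 50 ug/mL).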
# gsp antagonist – qHTS for Antagonists of gsp, the Etiologic Mutation Responsible for Fibrous Dysplasia/McCune-Albright Syndrome: qHTS | gsp-mutant cells, cAMP HTRF, 30 min; control for the full effect not named in the record | Potency, µM (titrated, usually from 76.9 µM), for inactives: top-dose activity change, negative = inhibition, usual class: inhibitors | 340,000 compounds, 0.4% hits; active = falling curve of any shape with a large fitted effect; inconclusive = falling curve, mostly with a smaller effect; inactive = flat or rising curve; cell line not stated here;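 further: intracellular cAMP measured with PDE inhibitor Ro 20-1724 present during compound exposure; potency means the concentration at half of the fitted maximal effect; on the % scale 0 is the no-effect control and ±100 the full control effect; nearly all actives have a fitted effect of over 65% in size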
#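 HTRF cAMP read-out (cAMP-d2 plus anti-cAMP antibody-K in lysis buffer, 30 min RT). Before lysis, cells are exposed to compounds with […] for 30 min at 37C in DPBS containing Ca/Mg, BSA and Tween 20.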
# gsp ag – qHTS for Agonist of gsp, the Etiologic Mutation Responsible for Fibrous Dysplasia/McCune-Albright Syndrome: qHTS | gsp mutant cells, cAMP HTRF, 30 min; control for the full effect not named in the record | Potency, µM (highest dose often 76.9 µM), for inactives: at the top dose activation (cAMP increase), most hits filed as activators | 340,000 compounds, 0.13% hits | AID 624287, 2012; active = well fitted activation curve with a large enough effect; inconclusive = small, poorly fitted or top-dose-only effect, or another doubt; inactive = no such curve, though single readings can be large or run the other way; cell line not stated here;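 further: phosphodiesterase inhibitor Ro 20-1724 added with compounds to block cAMP breakdown; potency means the concentration at half of the fitted maximal effect; nearly all actives have a fitted effect of over 60% in size; about a fifth of the inactives were tested at one dose only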
#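 Cells stably selected in G418 were plated at 2000/well, grown 16-24 hr, then given compounds in DMSO with the PDE inhibitor […] (300 uM solution added) for 30 min at 37C; cAMP was read by HTRF.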
# D2 potentiator – Beta-Arrestin HTS for Positive Allosteric Modulators of the Human D2 Dopamine Receptor: Potentiators; 360,000 compounds, 0.23% hits; potentiation, % (no concentration beside the values); DiscoveRx D2 beta-arrestin cells, luminescence, 90 min; 100% = 57 uM dopamine signal; active = potentiation of 50% or more; inconclusive = 30% to 50%; inactive = 30% or less;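 further: compound concentration not given in the record; tested on top of an EC20 dose of dopamine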
# Target sequence (P14416 whole entry, looked up): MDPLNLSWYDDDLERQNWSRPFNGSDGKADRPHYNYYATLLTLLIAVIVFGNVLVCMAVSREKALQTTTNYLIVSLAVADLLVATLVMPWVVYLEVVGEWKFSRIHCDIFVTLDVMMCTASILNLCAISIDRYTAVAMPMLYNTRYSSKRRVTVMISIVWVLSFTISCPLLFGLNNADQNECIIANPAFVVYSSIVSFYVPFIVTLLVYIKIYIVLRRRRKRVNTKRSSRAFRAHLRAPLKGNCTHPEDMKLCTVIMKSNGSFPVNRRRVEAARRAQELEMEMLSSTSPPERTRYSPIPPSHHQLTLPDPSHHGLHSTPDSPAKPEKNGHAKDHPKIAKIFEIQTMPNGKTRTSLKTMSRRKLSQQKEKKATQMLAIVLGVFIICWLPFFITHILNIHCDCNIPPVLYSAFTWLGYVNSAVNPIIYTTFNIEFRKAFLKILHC
#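 D2 cells co-treated with compound plus 50 nM dopamine (EC20) for 90 min at 37 deg C to detect potentiation. Beta-arrestin recruitment was read as enzyme-fragment luminescence after 1 h at ambient temperature. Full response was set by 57 uM dopamine.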
# D2 agonist – Beta-Arrestin HTS for Positive Allosteric Modulators of the Human D2 Dopamine Receptor: Agonists; activation, % (test concentration not listed); DiscoveRx PathHunter D2 beta-arrestin, luminescence, 90 min; 100% = 57 uM dopamine signal; AID 624465, 2012; 360,000 compounds, 0.084% hits; in the data active = activation above about 40%; inconclusive = about 15% to 40%; inactive = below about 15%; further: compound concentration not given in the record; the text of the record calls up to 30% inactive
#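 DiscoveRx PathHunter D2 beta-arrestin cells (2,100/well) attached overnight, then compound-stimulated 90 min at 37 C in HBSS/10 mM HEPES/0.1% Tween-20 buffer; beta-galactosidase complementation read by luminescence after 1 h at ambient temperature. Dopamine 57 uM final (EC100) as control.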
# * hit, by the source's call; u = inconclusive; x = not tested or not shown; [ ] = another dose, or the depositor's remark. Hits appear at their usual frequency; overall some 1.4% were active at least once.
SMILES,CtBP-E1A inh,Six1-Eya2 inh,gsp antagonist,gsp ag,D2 potentiator,D2 agonist
O=C(C1CCN(S(=O)(=O)c2ccccc2)CC1)N1CCN(c2ccccc2)CC1,-6,3,9%,-3%[15.4 µM],-1,-5.3
CC(C)c1ccc(/C=N/NC(=O)c2nnn(-c3nonc3N)c2CN2CCOCC2)cc1,x,-6,-13%,-90%[inhibitor],-3,3.9
COc1ccc(OC)c(NC(=O)c2cc(-c3ccc(C)cc3O)n[nH]2)c1,2,0,-11%,-12%,13,-3.6
C[C@H]1CN([C@@H](C)CO)S(=O)(=O)c2ccc(Br)cc2O[C@@H]1CN(C)C(=O)Cc1cccnc1,1,2,x,5%,9,-1.2
CCOCc1cc(CN2CCCC(CNC(=O)c3ccco3)C2)ccc1OC (stereo not drawn),-6,-4,-3%,u,-32,-6.7
CC(C(=O)NC1C=CS(=O)(=O)C1)N1C(=O)/C(=C/c2cccc(Cl)c2)SC1=S (stereo not drawn),-8,-6,-13%,15%,-13,-3.7
O=C(/C=C/c1cccc(Cl)c1)NCCCN1CCOCC1,2,1,16%,-8%,-8,-1.1
CCC(c1nnnn1C(C)(C)CC)N1CCN(c2ccccc2F)CC1 (stereo not drawn),5,3,3%,3%,-5,5.2
N#Cc1c(-c2ccccc2)cc(-c2ccc3c(c2)OCO3)[nH]c1=O,-1,1,0%,2%,-13,-3.3
CCN(CC)CCC(c1ccc(N(C)C)cc1)c1c(OC)cc(OC)c2c(-c3ccccc3)cc(=O)oc12 (stereo not drawn),u,u,19%,u,-27,0.0
COc1ccc(CNC(=O)CN(Cc2ccccc2)C(=O)CCC(=O)Nc2ccccn2)cc1,3,-2,-3%,10%,-6,-3.3
COc1cccc(NC(=O)CN(C)CC(=O)Nc2cccc(C(F)(F)F)c2)c1,5,5,-12%,5%[15.4 µM],-12,1.0
CC1Cc2ccccc2N1S(=O)(=O)c1cccc(C(=O)NNC(=O)c2ccccc2F)c1 (stereo not drawn),x,-5,-15%,21%,-5,-2.7
c1ccc2c(c1)Sc1cnccc1N2CC1CO1 (stereo not drawn),3,0,x,u,-22,-0.8
O=C(CC1CS(=O)(=O)CC1CC(=O)Nc1ccc2c(c1)OCCO2)Nc1ccc2c(c1)OCCO2 (stereo not drawn),-14,-13,-2%,3%,-9,-4.8
CCOC(=O)C1CCN(S(=O)(=O)c2ccc(OC)c(Cl)c2)CC1,12,-1,-3%,7%[15.4 µM],0,1.6
CCOc1ccc(N=C(NC#N)SC)cc1,11,1,9%,10%,-8,3.2
Cc1ccc(NC(=O)CSc2n[nH]c(-c3ccncc3)n2)cc1,3,6,-11%,-26%,-5,2.5
CCC(C(=O)NC1CCCC1)N(C(=O)Cn1nnc(-c2ccc(C)o2)n1)c1cccc(O)c1 (stereo not drawn),22,8,-28%,2%[15.4 µM],8,4.6
O=[N+]([O-])c1ccc(N2CCCCC2)cc1N1CCOCC1,-7,-10,-15%,-11%[15.4 µM],-6,-0.7
CCNC(=S)NNC(=O)C1CCCCC1,-6,2,9%,6%,-2,-0.4
Cc1ccccc1C(=O)N1CCC(C(=O)N2CCN(S(=O)(=O)c3ccccc3F)CC2)CC1,4,-2,-5%,-26%[15.4 µM],-3,-1.7
CCCCn1c(N)c(N(Cc2ccccc2OC)C(=O)COc2ccccc2C#N)c(=O)[nH]c1=O,x,2,5%,6%,-10,-3.8
Cn1c(N)c(C(=O)CSc2nc(N)cc(=O)[nH]2)c(=O)n(C)c1=O,-13,-8,6%,17%,-5,-0.5
O=C(Nc1nnc(C2COc3ccccc3O2)o1)c1ccc(F)cc1 (stereo not drawn),-23,u,0%,7%,-10,-1.7
COc1ccc(C#Cc2ccc(C3=CC(=O)CC(C)(C)C3=O)cc2)cc1,-4,-15,x,u,3,-8.8
C/C(=N/NC(=O)c1ccc(Cn2cccn2)o1)c1cccc(NC(=O)c2ccncc2)c1,-5,0,8%,-1%,-7,-1.8
COc1ccc(CN(C(=O)Cn2nnc(-c3ccc(C)o3)n2)C(C(=O)NCC2CCCO2)c2ccco2)cc1 (stereo not drawn),-3,-10,-29%,8%[15.4 µM],1,-0.7
Cc1noc(C)c1CSCC(=O)Nc1cc(C(F)(F)F)ccc1N1CCCCC1,9,5,u,u,-30,-3.7
C[C@H](CO)N1C[C@H](C)[C@@H](CN(C)C(=O)Nc2ccc3c(c2)OCO3)Oc2ccc(NC(=O)C3CCCCC3)cc2C1=O,0,-2,2%,u,4,1.3
OC(CNCC(c1ccco1)N1CCCCC1)c1ccccc1 (stereo not drawn),-2,4,1%,4%,9,0.0
CC(C)Cn1c(C(C)C)nc([N+](=O)[O-])c1Sc1ccc(Cl)cn1,2,-2,-4%,-14%,-3,-0.5
Cc1ccc(S(=O)(=O)N(C)C)cc1NC(=O)c1cc(C(C)(C)C)nn1Cc1ccccc1,-23,5,-6%,-3%,-10,-1.9
CCOC(=O)c1cccc(NC(=O)c2cc3ccccc3o2)c1,x,12,u,-1%,-59,1.6
Nc1nc(-c2ccccn2)nc(N)c1Cc1ccccc1F,-90*,-74*,14%,4%,-7,-0.3
O=C(CSc1nc(=O)n(CCCN2CCOCC2)c2c1CCC2)Nc1ccc(F)cc1F,1,6,8%,4%[15.4 µM],-4,-3.6
Cc1cc(C)c(C#N)c(SCC(=O)NN2CC(=O)N(c3ccccc3F)CC2=O)n1,3,22,11%,-5%[15.4 µM],2,-3.1
CC1(C)Oc2ccc3ccc(=O)oc3c2/C(=C/Nc2ccc(O)cc2)C1=O,x,-10,-12%,12%[15.4 µM],3,-0.4
O=C(Nc1nc(-c2ccc(F)cc2)cs1)c1cnccn1,-3,-1,0%,3%,-4,-1.3
O=C(C1CCN(Cc2nc(Cc3cccc(F)c3)no2)CC1)N1CCOCC1,2,-2,8%,1%[15.4 µM],-2,-1.5

# 5 structures out of the list, arranged by molecular weight, descending:
SMILES,CtBP-E1A inh,Six1-Eya2 inh,gsp antagonist,gsp ag,D2 potentiator,D2 agonist
C[C@H](CO)N1C[C@H](C)[C@@H](CN(C)C(=O)Nc2ccc3c(c2)OCO3)Oc2ccc(NC(=O)C3CCCCC3)cc2C1=O,0,-2,2%,u,4,1.3
C/C(=N/NC(=O)c1ccc(Cn2cccn2)o1)c1cccc(NC(=O)c2ccncc2)c1,-5,0,8%,-1%,-7,-1.8
COc1ccc(C#Cc2ccc(C3=CC(=O)CC(C)(C)C3=O)cc2)cc1,-4,-15,x,u,3,-8.8
N#Cc1c(-c2ccccc2)cc(-c2ccc3c(c2)OCO3)[nH]c1=O,-1,1,0%,2%,-13,-3.3
OC(CNCC(c1ccco1)N1CCCCC1)c1ccccc1 (stereo not drawn),-2,4,1%,4%,9,0.0

# (list continues)
SMILES,CtBP-E1A inh,Six1-Eya2 inh,gsp antagonist,gsp ag,D2 potentiator,D2 agonist
C1CN(c2nc3nonc3n3nnnc23)CCO1,-1,3,1%,-6%,8,-1.6
Cc1ccccc1S(=O)(=O)Cc1ccc(C(=O)NCCCN(C)Cc2ccccc2)o1,4,-2,12%,12%,-29,-3.6
CC(=O)Nc1nc(SCC(=O)Nc2nnc(C)s2)[nH]c(=O)c1NC(=O)c1cccs1,-3,5,8%,0%[15.4 µM],5,-1.4
COc1ccc(NC(=O)C(=O)NCCN2CCN(C(=O)c3ccc(C(C)(C)C)cc3)CC2)cc1,-5,3,3%,24%,0,0.1
Nc1ccn([C@@H]2O[C@H](CNC(=O)[C@H]3CCC(=O)N3)[C@@H](O)[C@H]2O)c(=O)n1,2,9,x,-6%,3,-8.4
CN(CC(=O)NCCc1ccc(S(N)(=O)=O)cc1)CC(=O)Nc1ccccc1Cl,18,0,13%,-1%,0,-7.2
CC(=O)c1c(-c2ccc(C)cc2)nc2c3ccccc3ccn12,9,0,-19%,-11%[15.4 µM],-2,1.5
O=C(OCc1ccccc1F)c1cc([N+](=O)[O-])ccc1N1CCOCC1,12,-10,-9%,2%,-27,-1.2
CCCCCCN1C[C@@H](O)[C@H](n2cc(-c3ccc(F)cc3)nn2)C[C@@H]1c1ccccc1,-22,3,x,-49%,-6,-4.1
CN1CCC(N(C)C(=O)COc2ccc(S(=O)(=O)N3CCOCC3)cc2)CC1,2,6,13%,20%,-3,-1.6
O=C(CNC(=O)c1ccco1)NCC(c1ccco1)N1CCCCC1 (stereo not drawn),3,-2,12%,-102%[inhibitor],1,-6.2
C/C(CC(=O)Nc1ccccn1)=N\NC(=O)C(=O)Nc1cccc(C)c1,0,-1,-5%,-25%,6,-1.0
CCNC(=S)N/N=C(\C)c1cccc([N+](=O)[O-])c1,-12,-1,3%,8%,-6,-6.3
COc1ccccc1NC(=O)c1ccc([N+](=O)[O-])cc1[N+](=O)[O-],0,23,-1%,7%[15.4 µM],u,11
O=C(c1ccc([N+](=O)[O-])cc1)N1CCN(c2cccc3[nH]ccc23)CC1,x,-6,-2%,-1%,-15,-1.8
CCN(Cc1nc2ccccc2c(=O)[nH]1)C(=O)c1ccc(C)c(NC(=O)c2ccco2)c1,x,1,-10%,-1%,-10,-2.7
Brc1ccc(Sc2cnc3ccccc3n2)cc1,30,0,17%,u,-11,-5.1
CCCCOC(=O)COc1ccc(Cl)cc1Cl,39,9,-1%,x,-5,7.3
CCOC(=O)C1CCN(Cc2ccc(OCc3ccccc3)c(OC)c2)CC1,-3,-6,9%,-7%,-10,7.1
CC(NC(=O)C1CCC(=O)N1Cc1ccccc1Cl)c1ccccc1 (stereo not drawn),x,3,1%,-2%,-12,3.4

# Part of the list above with just D2 agonist and Six1-Eya2 inh:
compound	D2 agonist	Six1-Eya2 inh
CCOC(=O)c1cccc(NC(=O)c2cc3ccccc3o2)c1	1.6	12
Cc1ccc(S(=O)(=O)N(C)C)cc1NC(=O)c1cc(C(C)(C)C)nn1Cc1ccccc1	-1.9	5
CC1Cc2ccccc2N1S(=O)(=O)c1cccc(C(=O)NNC(=O)c2ccccc2F)c1 (stereo not drawn)	-2.7	-5
C[C@H]1CN([C@@H](C)CO)S(=O)(=O)c2ccc(Br)cc2O[C@@H]1CN(C)C(=O)Cc1cccnc1	-1.2	2
c1ccc2c(c1)Sc1cnccc1N2CC1CO1 (stereo not drawn)	-0.8	0

# Bioassay records from PubChem.
